GLA inh pH 4.5: qHTS Assay for Inhibitors of Human alpha-Galactosidase at pH 4.5; Alpha-galactosidase A (Homo sapiens), P06280; purified enzyme, 4-MU-alpha-Gal fluorescence, pH 4.5; activity change, negative = inhibition, % at 105 µM; 230,000 tested, under 10 active; AID 1467, 2008; inconclusive = small, poorly fitted or top-dose-only inhibition, or a rising curve; inactive = flat fitted curve, though single readings scatter; no compound was filed as active;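 note: 0% = full activity with enzyme and -100% = basal without enzyme; dose as in the result columns while the protocol names 77 µM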
Rango complex inh: qHTS Assay for Inhibitors of Rango (Ran-regulated importin-beta cargo) - Importin beta complex formation; Potency, µM (highest dose often 92.2 µM), for inactives: top-dose inhibition of complex formation; Importin subunit beta-1 (Homo sapiens), Q14974; hit rate 0.031% among 340,000; AID 540263, 2011; Rango CFP/YFP FRET sensor + importin beta, 45 min; active = rising FRET ratio curve, often small or poorly fitted; inconclusive = mostly compound fluorescence or quenching in the first reads; inactive = flat curves in all reads;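 note: potency is the fitted concentration of half-maximal effect; 0% = DMSO wells and 100% = buffer wells lacking importin beta; nearly all actives have a fitted effect of over 15% in size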
Target sequence (Q14974 whole entry, looked up): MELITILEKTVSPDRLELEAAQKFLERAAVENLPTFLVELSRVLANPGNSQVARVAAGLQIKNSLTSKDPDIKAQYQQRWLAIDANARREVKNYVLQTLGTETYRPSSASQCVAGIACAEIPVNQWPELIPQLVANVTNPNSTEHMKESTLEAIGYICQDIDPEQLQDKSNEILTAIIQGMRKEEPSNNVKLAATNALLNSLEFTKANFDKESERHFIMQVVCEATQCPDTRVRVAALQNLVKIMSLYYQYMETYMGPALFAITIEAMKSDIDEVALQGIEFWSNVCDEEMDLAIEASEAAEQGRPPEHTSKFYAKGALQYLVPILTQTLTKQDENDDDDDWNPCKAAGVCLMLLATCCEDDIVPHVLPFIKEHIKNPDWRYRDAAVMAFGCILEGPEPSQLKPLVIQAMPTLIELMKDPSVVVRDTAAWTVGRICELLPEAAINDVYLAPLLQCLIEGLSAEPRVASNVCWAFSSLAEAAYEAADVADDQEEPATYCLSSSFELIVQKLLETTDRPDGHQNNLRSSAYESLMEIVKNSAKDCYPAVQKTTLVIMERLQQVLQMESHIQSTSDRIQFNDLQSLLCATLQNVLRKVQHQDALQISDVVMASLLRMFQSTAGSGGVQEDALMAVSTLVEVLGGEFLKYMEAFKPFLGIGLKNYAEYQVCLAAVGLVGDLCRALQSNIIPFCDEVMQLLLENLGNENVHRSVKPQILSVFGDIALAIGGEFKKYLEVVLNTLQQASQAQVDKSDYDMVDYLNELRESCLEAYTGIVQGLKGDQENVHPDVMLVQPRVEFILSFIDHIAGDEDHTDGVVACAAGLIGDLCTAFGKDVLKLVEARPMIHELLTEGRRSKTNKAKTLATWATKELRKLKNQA
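FRET biosensor (snurportin 1 IBB flanked by EYFP and cerulean), 50 nM, with compound 5 min, then 0.125 microM importin beta in PBS, 1 mM DTT, 0.02% Tween-20, 0.1% BSA. CFP/YFP ratio read after 45 min at room temperature; pre-read flags interference.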
miR-21 FLuc: qHTS Assay for Modulators of miRNAs and/orActivators of miR-21 | HeLa miR-21 FLuc reporter, luciferase, 48 h | Potency, µM (doses to about 38.3 µM), for inactives: top-dose reporter change, positive = more light | 340,000 tested, under 10 active; active = well fitted rising curve with a large enough effect; inconclusive = small, poorly fitted or top-dose-only effect; inactive = no such curve, though single readings can be large or run the other way;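 note: % of control where 0% means no effect; miR-21 action dims this reporter so a rising signal means less miR-21 action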
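HeLa miR-21-FLuc reporter line, endogenous miR-21; 2000 cells/well in DMEM/10% FBS; compound titration up to ~40uM final, 48 h, 37 degree Celsius; luciferase detection reagent, 15 min lysis, CCD luminescence.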
Rango dissoc inh: qHTS Assay for Inhibitors of RanGTP induced Rango (Ran-regulated importin-beta cargo) - Importin beta complex dissociation; Snurportin-1 (Homo sapiens) + GTP-binding nuclear protein Ran (Homo sapiens) + Importin …; Biochemical FRET Rango-importin beta, RanGTP-induced dissociation; Potency, µM (titrated, usually from 46.1 µM), for the others: top-dose activity change, negative = inhibition; hit rate 0.071% among 340,000; AID 540253, 2011; active means falling FRET ratio curve, often poorly fitted, with flat reads before Ran was added; inconclusive means other falling curves, or compound fluorescence or quenching; inactive means flat or rising ratio curve;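 note: potency is the fitted concentration of half-maximal effect; % of control where 0% means no effect; nearly all actives have a fitted effect of over 45% in size; -100% = wells without RanGTP and RCC1; the record marks most hits as doubtful in a second field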
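FRET read at 45 min, room temperature: inhibitors block the CFP/YFP signal rise when RanGTP (0.6 uM Ran, 2 mM GTP, 0.2 uM RCC1) frees Rango (0.1 uM) from importin beta (0.25 uM). Pre-read after 5 min compound exposure flags interference.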
* marks the source's active call; other numbers are inactive results; ? = inconclusive; / = not tested or not shown; & = joins results of further samples. A portion of the library, so the mix of outcomes need not match the whole.

The first seven entries, ahead of the listing:
SMILES	GLA inh pH 4.5	Rango complex inh	miR-21 FLuc	Rango dissoc inh
COc1cccc2sc(N3CCN(C(=O)c4ccc([N+](=O)[O-])o4)CC3)nc12	/	-0.2%	/	0%
O=C(Nc1nnc(-c2ccco2)o1)c1ccc([N+](=O)[O-])s1	0	0.0%	-5%	-8%
CC(=O)NC(CC(C)C)C(=O)NC(CO)C(=O)NC(CCC(=O)O)C(=O)NC(C)C(=O)NC(CC(C)C)C(N)=O (centres undefined)	/	1.6%	/	-2%
COC(=O)[C@H](CC(C)C)NC(=O)Cn1cnc2c(SC)nc(N)nc21	/	-3.2%	/	-8%
CN(C(=O)c1cccc(C#N)c1)c1nnc(C2CCCO2)s1 (centres undefined)	6	?	-2%	-4%
COc1ccc(-n2nc(C(C)=O)c(=O)[nH]c2=O)cc1	-9	2.8%	-14%	0%
COc1cc2cnc(-c3ccccc3)c(C(=O)c3ccc(OCc4ccccc4)cc3)c2cc1OC	/	0.2%	/	16%

The listing, previewed entries included:
SMILES	GLA inh pH 4.5	Rango complex inh	miR-21 FLuc	Rango dissoc inh
COc1cccc2sc(N3CCN(C(=O)c4ccc([N+](=O)[O-])o4)CC3)nc12	/	-0.2%	/	0%
O=C(Nc1nnc(-c2ccco2)o1)c1ccc([N+](=O)[O-])s1	0	0.0%	-5%	-8%
CC(=O)NC(CC(C)C)C(=O)NC(CO)C(=O)NC(CCC(=O)O)C(=O)NC(C)C(=O)NC(CC(C)C)C(N)=O (centres undefined)	/	1.6%	/	-2%
COC(=O)[C@H](CC(C)C)NC(=O)Cn1cnc2c(SC)nc(N)nc21	/	-3.2%	/	-8%
CN(C(=O)c1cccc(C#N)c1)c1nnc(C2CCCO2)s1 (centres undefined)	6	?	-2%	-4%
COc1ccc(-n2nc(C(C)=O)c(=O)[nH]c2=O)cc1	-9	2.8%	-14%	0%
COc1cc2cnc(-c3ccccc3)c(C(=O)c3ccc(OCc4ccccc4)cc3)c2cc1OC	/	0.2%	/	16%
CC(OC(=O)Cc1ccc(Cl)cc1)C(=O)NCCC1=CCCCC1 (centres undefined)	1	-2.8%	-6%	8%
CCOC(=O)c1ccc(NC(=O)c2cccnc2)cc1	/	1.9%	-31%	-7%
COc1ccccc1OCC(=O)N1CCN(c2ccccc2OC)CC1	12	4.3%	-8%	1%
Cc1c(NC(=O)c2ccc(Cl)c(S(=O)(=O)N3CCCCC3)c2)c(=O)n(-c2ccccc2)n1C	/	-0.9%	9%	-6%
O=C(Nc1nn[nH]n1)c1cccc(Oc2ccccc2)c1	0	-1.1%	-7%	6%
CC(C)CN(C(=O)COC(=O)C12CC3CC(CC(C3)C1)C2)c1c(N)n(Cc2ccccc2)c(=O)[nH]c1=O	/	4.3%	/	-3%
CCOC(=O)C1CCN(C(=O)CCCCn2c(=O)[nH]c3ccccc3c2=O)CC1	-12	-1.0%	-8%	14%
O=C(C[C@H]1C/C=C\C[C@@H](Cc2ccc(F)cc2)C(=O)OC[C@@H](Cc2c[nH]c3ccccc23)NC1=O)NCCO	/	-2.6%	/	-8%
C=CCN(CC=C)CCCOc1ccc(C)cc1OC	5	5.1%	-2%	6%
CCOC(=O)c1sc(NC(=O)c2cc(-c3ccccc3C)nc3ccccc23)c(C#N)c1C	-7	-0.7%	?	?
CCO[C@H]1OC(C(=O)O)=C[C@@H](c2coc3ccccc3c2=O)[C@@H]1CCCO	/	-3.0%	/	-7%
Cc1cc(/C=C(\C#N)C(=O)NC2CCCCCC2)c(C)n1C	3	?	-39%	-13%
CCCCOc1ccc(C2(C)NC(=O)N(C)C2=O)cc1 (centres undefined)	/	-4.6%	-7%	0%
CC(C)CC(=O)N1CCN(S(=O)(=O)c2ccc(F)cc2)CC1	1	-1.5%	-7%	-5%
CCN(CC(=O)Nc1c(F)cccc1F)C(=O)c1cccnc1Sc1ccccc1	/	-1.7%	/	12%
COCCNC(=O)CN(C(=O)Cn1nnc2ccccc21)c1ccccc1	8	-1.3%	-5%	-1%
O=C(CN1CCCCC1)Nc1ccccc1NC(=O)CN1CCCCC1	2	0.5%	0%	?
COc1ccc(CSc2ccc(S(=O)(=O)N3CCCCC3)cn2)cc1F	/	-5.1%	/	-8%
Cc1ccc(NS(=O)(=O)c2ccc(-c3ccc(=O)[nH]n3)o2)c(C)c1	/	?	-3%	2%
CCOc1cc(CO)cc(Br)c1OCC(N)=O	7	-0.7%	-1%	6%
CC1(C)N=C(SCC(=O)Nc2ccccc2)C(c2ccc(Cl)cc2)=N1	-26	2.4%	16%	26%
CCOC(=O)N1CCC(N2CCCC(CO)(Cc3ccccc3C)C2)CC1 (centres undefined)	-5	?	1%	-29%
C=C1c2ccccc2O[C@H](C(=O)OCC)[C@@H]1C1CCCCC1	/	4.1%	/	1%
CC(=O)Nc1ccc(S(=O)(=O)N2CCC(C(=O)NCCC(=O)Nc3nccs3)CC2)cc1	/	-2.2%	3%	0%
COC(=O)c1nc(N)sc1-c1ccccc1	4	-0.9%	2%	-6%
CCN(CCCNC(=O)Cn1ncc2c([nH]c3ccc(C)cc32)c1=O)c1cccc(C)c1	/	-2.8%	-1%&0%	-3%
Cc1cc(NCCOCCO)n2ncc(-c3ccc(Cl)cc3)c2n1	-1	5.8%	8%	-3%
Cc1ncoc1C(=O)N1CCCC(C(=O)c2cccc(C(F)(F)F)c2)C1 (centres undefined)	2	-1.8%	3%	9%
O=C(CN1CCCCCCC1)Nc1cc(Cl)cc(Cl)c1	-5	-0.7%	-6%	-5%
Cc1cccc(-c2noc(CN(C(=O)c3c(-c4ccccc4Cl)noc3C)C(C)C)n2)c1	0	-2.5%	25%	-5%
Cc1ccc(NC(=O)Cc2ccc(Cl)cc2)nc1	/	5.6%	/	16%
Cc1cc(C)c2c(CN3CCN(C/C=C/c4ccccc4)CC3)cc(=O)oc2c1	0	1.1%	0%	-14%
c1cnc(N2CCN(c3ccc4ccccc4n3)CC2)nc1	/	-4.3%	-28%	11%
Cc1cccc(NC(=O)COC(=O)CCc2c[nH]c3ccccc23)c1C	/	1.5%	/	-10%
Cc1[nH]nc2c1C(c1ccccn1)N(c1ccc(Br)cc1)C2=O (centres undefined)	2	-7.3%	1%	1%
COc1ccc(C(=O)N(C)Cc2ccccc2F)cc1S(=O)(=O)N1CCCC1	/	2.1%	/	-22%
CCCCC(=O)Nc1nc(C)c(-c2csc(Nc3cc(Cl)ccc3OC)n2)s1	-5	?	6%	1%
Cc1nc2ccccc2n1CC(=O)N1CC(=O)Nc2ccccc21	-6	5.2%	-1%	-2%
COc1ccc(NC(=O)c2cccc(NC(=O)C3C4CC5OC(=O)C3C5C4)c2)c(OC)c1 (centres undefined)	1	0.3%	-3%	-4%
CCCCN(C(=O)c1ccc2c(c1)OCO2)c1c(N)n(CC(C)C)c(=O)[nH]c1=O	/	-0.2%	/	-1%
O=C(Nc1ccc(S(=O)(=O)N2CCCC2)cc1)N1c2ccccc2Sc2ccccc21	-1	0.2%	2%	-2%
CN1CCN(c2nc3c(c(=O)[nH]c(=O)n3C)n2CCSc2nnnn2-c2ccccc2)CC1	4	0.3%	1%	-9%
COc1ccccc1N1CCN(CC(=O)Nc2ccccc2C(=O)NCCc2ccccc2)CC1	/	0.0%	/	-1%
CCC(=O)N(CCC(c1ccco1)c1ccccc1OC)Cc1cccs1 (centres undefined)	-11	4.6%	14%	-6%
O=C(O)c1ccc(N/N=C/c2ccc3c(c2)OCO3)cc1	-8	-1.1%	?	4%
O=C(NC(NC(=S)Nc1ccccc1)C(Cl)(Cl)Cl)c1cccc(Cl)c1 (centres undefined)	-1	2.3%	?	8%
O=C(/C=C/c1ccc(S(=O)(=O)NCc2ccco2)cc1)N1CCN(c2ccccc2)CC1	-5	-1.5%	18%	34%
O=C(OCn1ncc(Cl)c(Cl)c1=O)c1ccccc1Cl	4	0.2%	27%	14%
O=C(CCCN1C(=O)c2cccnc2C1=O)Nc1ccccc1F	8	2.2%	1%	17%
Cc1cccc(N2CCN(C(=O)CCNS(=O)(=O)c3ccc4c(c3)CCC(=O)N4)CC2)c1C	-4	-0.3%	16%	-21%
CCOC(=O)c1sc(NC(=O)COC(=O)Cn2cnc3ccccc32)c(C(=O)OCC)c1C	5	-2.2%	-19%	-7%
Cc1nc(SCC(=O)Nc2ccc(F)cc2)c2oc3ccccc3c2n1	3	0.8%	-2%	-2%
Cc1ccc(NC(=O)Cn2cnc3cc([N+](=O)[O-])ccc3c2=O)c(Cl)c1	-2	-3.9%	5%	4%

An excerpt of these results, with bars between the fields:
Molecule | GLA inh pH 4.5 | Rango complex inh | miR-21 FLuc | Rango dissoc inh
Cc1ccc(NC(=O)Cn2cnc3cc([N+](=O)[O-])ccc3c2=O)c(Cl)c1 | -2 | -3.9% | 5% | 4%
CN1CCN(c2nc3c(c(=O)[nH]c(=O)n3C)n2CCSc2nnnn2-c2ccccc2)CC1 | 4 | 0.3% | 1% | -9%
O=C(CCCN1C(=O)c2cccnc2C1=O)Nc1ccccc1F | 8 | 2.2% | 1% | 17%
CCOC(=O)c1sc(NC(=O)COC(=O)Cn2cnc3ccccc32)c(C(=O)OCC)c1C | 5 | -2.2% | -19% | -7%
Cc1cccc(N2CCN(C(=O)CCNS(=O)(=O)c3ccc4c(c3)CCC(=O)N4)CC2)c1C | -4 | -0.3% | 16% | -21%

Other results
SMILES	GLA inh pH 4.5	Rango complex inh	miR-21 FLuc	Rango dissoc inh
CCCC(=O)Nc1nn(CCC)c2nc3ccccc3cc12	-2	?	0%	?
Oc1ccc(Cl)cc1CNCC1CCCCC1	/	0.5%	/	12%
Cc1cc(OCc2cc(C(=O)NC(C)c3c(C)nn(C)c3C)no2)cc(C)c1Cl (centres undefined)	/	-4.3%	-9%	1%
C=CCOc1cccc(C2C(C(=O)c3ccc(C)o3)=C(O)C(=O)N2CCN(C)C)c1 (centres undefined)	2	-0.6%	-2%	-5%
Cc1cccc(OCC(=O)Nc2ccccc2N2CCCC2)c1C	/	3.0%	/	-15%
CC(C)CNC(=O)Cn1nc(C(F)(F)F)c2c1CCCC2	2	0.2%	1%	0%
S=c1[nH]nc(Cc2n[nH]c(=S)n2-c2ccccc2)n1-c1ccccc1	/	-0.3%	-3%	15%
C[C@H](CO)N1C[C@H](C)[C@@H](CN(C)S(=O)(=O)c2ccc(F)cc2)Oc2c(NC(=O)CCC(F)(F)F)cccc2C1=O	/	5.2%	/	0%
CC1CCN(C(=O)c2cc3c(ccc4ccccc43)o2)CC1	/	-1.0%	-31%	-3%
CN(C)C(=O)COC(=O)/C=C/c1cn(-c2ccccc2)nc1-c1cccs1	?	1.6%	0%	9%
Cn1c(=O)c2c(nc(NCc3ccco3)n2CCc2ccccc2)n(C)c1=O	-8	-0.1%	14%	7%
CC(=O)c1cccc(NC(=O)CSc2ccc(-c3ccccn3)nn2)c1	/	-4.2%	5%	1%

Screening data deposited in PubChem BioAssay by National Center for Advancing Translational Sciences (NCATS).
